Screening results as filed in PubChem.
CtBP-E1A inh: CtBP/E1A binding inhibition | activity change, % (test concentration not listed) | AID 651724 | AlphaScreen GST-E1A/His-CtBP binding, 1536-well; stronger effect = lower value; control for the full effect not named in the record | hit rate 0.49% among 340,000; in the data active means activity change below about -65%; inconclusive means about -30% to -65%; inactive means above about -30%; further: on the % scale 0 is the no-effect control and ±100 the full control effect; compound concentration not given in the record
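Protein mix (5X: 125 nM each GST-E1A, His-CtBP) was incubated with pinned compound 2 h at 37 deg C in dark, in 50 mM Tris pH 8.0 buffer with 300 mM NaCl. Glutathione donor and nickel acceptor beads followed; AlphaScreen signal read after 1 h.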
gsp agonist: activates gsp, the McCune-Albright syndrome mutation; AID 624287; gsp mutant cells, cAMP HTRF, 30 min; control for the full effect not named in the record; hit rate 0.13% among 340,000; Potency, µM (titrated, usually from 76.9 µM), for the others: at the highest dose activation (cAMP increase), most hits filed as activators; active = well fitted activation curve with a large enough effect; inconclusive = small, poorly fitted or top-dose-only effect, or another doubt; inactive = no such curve, though single readings can be large or run the other way; cell line not stated here;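 further: phosphodiesterase inhibitor Ro 20-1724 added with compounds to block cAMP breakdown; potency means the concentration at half of the fitted maximal effect; nearly all actives have a fitted effect of over 60% in size; about a fifth of the inactives were tested at one dose only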
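Cells stably selected in G418 were plated at 2000/well, grown 16-24 hr, then given compounds in DMSO with the PDE inhibitor […] (300 uM solution added) for 30 min at 37C; cAMP was read by HTRF.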
D2 PAM: human D2 receptor positive allosteric modulation. DiscoveRx D2 beta-arrestin cells, luminescence, 90 min; 100% = 57 uM dopamine signal. potentiation, % (concentration not given with the values). AID 624464. hit rate 0.23% among 360,000; active = potentiation of 50% or more; inconclusive = 30% to 50%; inactive = 30% or less;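 further: compound concentration not given in the record; tested on top of an EC20 dose of dopamine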
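D2 cells co-treated with compound plus 50 nM dopamine (EC20) for 90 min at 37 deg C to detect potentiation. Beta-arrestin recruitment was read as enzyme-fragment luminescence after 1 h at ambient temperature. Full response was set by 57 uM dopamine.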
Six1-Eya2 blk: Six1/Eya2 interaction inhibition; AlphaScreen GST-Six1/His-Eya2 binding, biochemical; stronger effect = lower value; control for the full effect not named in the record; activity change, % (concentration not given with the values); hit rate 0.56% among 360,000; AID 651725; in the data active = activity change below about -65%; inconclusive = about -30% to -65%; inactive = above about -30%; further: on the % scale 0 is the no-effect control and ±100 the full control effect
Target sequence (O00167 whole entry, looked up): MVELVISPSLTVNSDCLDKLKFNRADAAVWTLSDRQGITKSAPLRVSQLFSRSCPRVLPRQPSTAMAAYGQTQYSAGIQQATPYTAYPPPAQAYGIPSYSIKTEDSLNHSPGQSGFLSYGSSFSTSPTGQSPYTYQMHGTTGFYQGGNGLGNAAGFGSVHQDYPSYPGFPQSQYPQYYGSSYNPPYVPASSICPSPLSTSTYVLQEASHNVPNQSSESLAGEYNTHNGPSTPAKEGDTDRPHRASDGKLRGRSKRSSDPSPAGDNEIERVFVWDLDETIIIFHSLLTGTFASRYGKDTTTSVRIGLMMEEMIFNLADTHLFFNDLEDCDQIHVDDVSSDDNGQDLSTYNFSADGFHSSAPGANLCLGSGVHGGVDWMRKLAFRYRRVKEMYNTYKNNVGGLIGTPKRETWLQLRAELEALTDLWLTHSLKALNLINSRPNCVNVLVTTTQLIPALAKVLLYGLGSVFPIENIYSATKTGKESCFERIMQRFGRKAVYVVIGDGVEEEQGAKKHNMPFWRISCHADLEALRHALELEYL
Target sequence (Q15475 whole entry, looked up): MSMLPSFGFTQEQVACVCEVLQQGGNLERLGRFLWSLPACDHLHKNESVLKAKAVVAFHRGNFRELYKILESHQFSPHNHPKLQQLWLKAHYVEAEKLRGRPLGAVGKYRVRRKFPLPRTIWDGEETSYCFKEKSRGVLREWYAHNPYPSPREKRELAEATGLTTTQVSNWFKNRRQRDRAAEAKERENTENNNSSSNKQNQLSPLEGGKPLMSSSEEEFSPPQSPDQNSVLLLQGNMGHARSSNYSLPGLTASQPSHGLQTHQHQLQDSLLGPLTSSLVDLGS
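AlphaScreen luminescence read after one hour at 37 °C in darkness. Pin-transferred compounds met GST-Six1 and His-Eya2 protein (5X stock 250 nM/500 nM) plus glutathione donor and Ni-chelate acceptor beads (5X, 50 ug/mL).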
D2 ag: agonists of human D2 dopamine receptor (beta-arrestin). P14416. DiscoveRx PathHunter D2 beta-arrestin, luminescence, 90 min; 100% = 57 uM dopamine signal. activation, % (no concentration beside the values). hit rate 0.084% among 360,000. AID 624465; in the data active = activation above about 40%; inconclusive = about 15% to 40%; inactive = below about 15%; further: compound concentration not given in the record; the text of the record calls up to 30% inactive
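Agonist mode: compounds alone added to overnight-plated D2 PathHunter cells for 90 min at 37 C, with 57 uM final dopamine (EC100) defining full response. Beta-arrestin recruitment detected by chemiluminescent reagent, read after 1 h at ambient temperature.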
gsp antagonist: gsp mutant antagonism | AID 624288 | Potency, µM (highest dose often 76.9 µM), inactives show at the top dose activity change, negative = inhibition, most hits filed as inhibitors | gsp-mutant cells, cAMP HTRF, 30 min; control for the full effect not named in the record | hit rate 0.4% among 340,000; active = falling curve of any shape with a large fitted effect; inconclusive = falling curve, mostly with a smaller effect; inactive = flat or rising curve; cell line not stated here;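 further: intracellular cAMP measured with PDE inhibitor Ro 20-1724 present during compound exposure; potency means the concentration at half of the fitted maximal effect; on the % scale 0 is the no-effect control and ±100 the full control effect; nearly all actives have a fitted effect of over 65% in size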
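Measurement of cellular cAMP by homogeneous time-resolved fluorescence following a 30 min compound exposure at 37C. The PDE inhibitor […] was present throughout; the assay buffer was DPBS with 0.05% BSA and 0.005% Tween 20.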
The depositor's hits bear a star; ? = inconclusive; . = no result given; [ ] = another dose, or the depositor's remark.

SMILES	CtBP-E1A inh	gsp agonist	D2 PAM	Six1-Eya2 blk	D2 ag	gsp antagonist
CC(C)(C)CC(C)(C)NC(=O)Nc1cccc([N+](=O)[O-])c1	4.8	16.5%	-11.8	0.5	-2.0	?
COc1ccc(Cc2nc(C(=O)NCc3ccccc3OC)cs2)cc1	6.1	14.6%	-7.4	-7.3	-1.5	2.0%
Cc1cccc(-c2nnn3c2nc(NCCc2ccc(S(N)(=O)=O)cc2)c2ccccc23)c1	8.8	9.1%	-5.8	17.2	-3.7	-7.3%
COc1ccc(CN2CCC(N3CCC(C(=O)N4CCOCC4)CC3)CC2)c(F)c1	.	9.7%[15.4 µM]	-3.5	14.8	-3.9	1.0%
Cc1cc(C)n(-c2nc3c(c(=O)[nH]c(=O)n3C)n2CCc2ccccc2)n1	-1.2	-1.5%	13.4	0.7	0.0	1.9%
O=C(NCc1cccc(F)c1F)C1CCC(=O)N(C2CC2)C1 (centres undefined)	-14.6	3.3%	-10.0	-8.4	-3.2	15.4%
O=C(NCCc1c[nH]c2ccccc12)C(=O)NCC1OCCN1S(=O)(=O)c1ccc(Cl)cc1 (centres undefined)	-5.7	-47.5%[inhibitor]	-0.4	-7.8	0.6	-18.8%
CCc1ccc(Nc2nc(N)nc(CSc3nc4ccccc4s3)n2)cc1	-0.8	24.4%[15.4 µM]	-6.3	2.9	4.6	3.4%
O=C(NCc1cccs1)c1ccc(Cl)c(S(=O)(=O)N2CCCC2)c1	-0.7	44.4%	0.4	0.1	0.4	-0.5%
COc1ccc(S(=O)(=O)N2CCCCC2)cc1NC(=O)c1cccnc1SC	-7.2	-31.7%[inhibitor]	-0.7	3.1	0.8	-11.8%
COc1cccc(C2c3cc4c(cc3OC(N3CCOCC3)C2C)OCO4)c1O (centres undefined)	2.7	-3.8%	-17.5	-8.8	-0.2	6.8%
c1ccc2c(-c3nc(-c4ccncc4)no3)cccc2c1	-6.0	17.2%	-2.0	1.2	0.1	-7.0%

Next part; it opens with the 2 that closed the last part.
SMILES	CtBP-E1A inh	gsp agonist	D2 PAM	Six1-Eya2 blk	D2 ag	gsp antagonist
COc1cccc(C2c3cc4c(cc3OC(N3CCOCC3)C2C)OCO4)c1O (centres undefined)	2.7	-3.8%	-17.5	-8.8	-0.2	6.8%
c1ccc2c(-c3nc(-c4ccncc4)no3)cccc2c1	-6.0	17.2%	-2.0	1.2	0.1	-7.0%
CCn1c(SCc2ccccc2)nnc1-c1cccs1	-12.7	7.1%	-0.4	0.1	0.2	-22.7%
CCOC(=O)Cc1csc(NC(=O)CSc2nnnn2-c2ccc(CC)cc2)n1	-5.0	-31.1%[inhibitor]	1.8	5.7	-0.4	-19.4%
CCn1cc(C(=O)NC(C)CCc2ccccc2)c(=O)c2cc(S(=O)(=O)N(C)C)ccc21 (centres undefined)	7.6	-25.0%[15.4 µM]	2.1	31.0	-0.4	-8.0%
C=C(C)C(O)CC/C(C)=C/Cc1c(O)ccc(C(=O)/C=C/c2ccc(O)cc2)c1O (centres undefined)	-5.1	.	-31.7	-5.0	-2.9	?
C=CCn1c(SCC(=O)N2CCN(C(=O)OCC)CC2)nc2c([nH]c3ccccc32)c1=O	2.4	?	-4.2	0.1	-0.2	.
CC(C)(C)C(=O)Nc1cc(S(=O)(=O)Nc2ccc(Cl)cc2)ccc1O	0.0	7.8%[15.4 µM]	-3.6	2.0	5.8	.
O=[N+]([O-])c1cccc(Cl)c1NCCNS(=O)(=O)c1ccccc1	-7.5	23.1%	-14.2	-11.6	-1.5	31.4%
O=C(N1CCOCC1)n1nnc2ccccc21	-1.2	-23.7%	-1.6	10.3	-0.6	6.9%
CCO[C@H]1OC(C(=O)NC2CC2)=C[C@@H](c2c[nH]c3ccccc23)[C@@H]1CCCO	3.2	.	?	0.8	3.2	-2.9%
Cc1ccc(C(=O)Cc2ccccc2)o1	0.6	.	-7.2	6.8	-1.0	1.8%
CCOc1ccc(N2C(=O)CS/C2=C(\C(Cl)=C(Cl)Cl)[N+](=O)[O-])cc1	0.3	-9.0%	-11.5	-9.0	-10.9	-16.5%
COc1ccc(C23NCCN2C(=O)c2ccccc23)cc1 (centres undefined)	1.4	-4.1%	-4.4	7.4	-1.8	-1.6%
C=CCN(C(=O)Cc1cccs1)c1nc(-c2ccc(S(C)(=O)=O)cc2)cs1	-0.9	12.4%[15.4 µM]	0.5	-4.0	-0.4	-18.3%
Cc1ccc(OCC(=O)Nc2ccc(C)c(S(=O)(=O)N3CCCCC3)c2)c([N+](=O)[O-])n1	-6.3	1.6%[15.4 µM]	0.6	-16.3	-4.4	?
Nc1ccccc1SC(CC(=O)c1ccccc1)c1cccc([N+](=O)[O-])c1 (centres undefined)	-1.8	-30.4%[inhibitor]	-33.9	-18.8	-12.1	.
CC(C)(C)NC(=O)COc1ccc(CNn2nnnc2N)cc1	-5.3	-38.3%[inhibitor]	0.3	4.8	-1.8	9.5%
CCN1CCN(CCCOc2ccccc2-c2ccccc2)CC1	.	-23.7%	-21.5	-11.9	-0.4	8.8%
NS(=O)(=O)c1ccc(N/N=C2/CCCCC2C2CCCCC2)c([N+](=O)[O-])c1 (centres undefined)	?	-39.4%[inhibitor]	-36.6	?	-7.4	24.3%
Cc1sc(NC(=O)c2ccc(Cl)s2)c(C(N)=O)c1C	0.9	13.2%	-14.0	-4.4	-2.9	-18.2%
COc1cc(CNC2CCCC2)cc(Cl)c1OCc1ccccc1Cl	1.2	-7.8%	-11.6	7.7	-2.6	9.9%
COc1cc(OC)nc(-n2ncc(Br)c(Br)c2=O)n1	-4.6	6.4%[15.4 µM]	-14.6	-2.6	1.4	?
COc1ccc(CNc2nc(-c3ccccc3)nn2C(=O)c2ccc([N+](=O)[O-])cc2)cc1	0.6	-4.9%	0.5	3.7	-2.2	1.7%
COc1ccc(N2C(=O)C3CCCCC3C2=O)cc1NC(=O)c1ccccc1 (centres undefined)	0.6	?	-4.8	5.8	0.5	-3.8%
CCO[C@@H]1OC(C(=O)O)=C[C@H](c2ccccc2)[C@H]1CCCO	2.9	.	-10.1	-2.0	1.3	-2.8%
CN(Cc1cnccn1)Cc1nc(Cc2cccc(F)c2)no1	2.6	15.8%	-7.3	2.8	6.8	5.0%
Cc1sc(NC(=O)C2CCCCC2C(=O)O)c(C(N)=O)c1C (centres undefined)	3.6	?	2.1	2.4	-1.8	-2.0%
COC(=O)c1cn(NC(=O)Cc2ccc(Cl)c(Cl)c2)c(=O)c2ccccc12	0.0	-15.2%[15.4 µM]	-11.0	0.0	1.3	-19.1%
CC(C)OC(=O)CCc1nc2ccccc2[nH]c1=O	5.8	-1.0%	2.8	17.9	-2.8	-1.3%
CCOC(=O)CN1C(=O)S/C(=C/c2ccc(N3CCCCC3)o2)C1=O	-1.0	-9.5%	-0.3	-1.5	-2.3	8.8%
Cn1c(N)c(C(=O)CSc2n[nH]c(-c3ccccc3)n2)c(=O)n(C)c1=O	19.2	-0.2%	-16.4	-6.0	-1.4	13.5%
COCCN(CCOC)Cc1cc(=O)oc2cc(OC)c(Cl)cc12	-18.4	.	-3.5	11.6	-2.8	.
CCC1(NC(C)=O)CC2CC1CC2NC(C)=O (centres undefined)	2.1	-0.5%	-1.4	3.5	-3.7	6.7%
CCCc1cc(C(N)=O)c(NC(=O)c2ccoc2C)s1	-2.3	-36.2%	-10.5	-22.4	-5.1	-12.8%
CC(C)NC(=O)C1CCN(C2CCN(CC3CC=CCC3)CC2)CC1 (centres undefined)	8.1	0.1%	-2.4	-6.3	1.5	5.3%
CCn1c(=O)cc(OCC(=O)NCc2ccc(C)o2)c2ccccc21	-10.8	3.8%	-6.2	-1.7	-1.6	-4.0%
CCOC(=O)c1c(-c2ccccc2)oc2ccc(OCC(O)CNCCN(C)C)cc12 (centres undefined)	0.3	8.2%[15.4 µM]	-11.2	1.0	4.5	13.4%
CC(C)Cc1nnc(N)s1	0.0	0.7%	-9.2	29.1	-4.0	5.9%
Cc1cccc(CS(=O)(=O)c2ncc(Cl)c(C(=O)Nc3ccc(F)cc3)n2)c1	-17.0	-44.9%[inhibitor]	-53.6	-15.1	-10.6	50.1µM*
COc1ccccc1CC(=O)NC1CCCc2ccccc21 (centres undefined)	0.8	?	1.0	1.2	-5.1	5.5%
O=c1ccc(-c2ccccc2)nn1Cc1ccccc1	8.8	7.4%	0.1	0.7	3.2	2.6%

Molecules above that contain an aryl thioether with sulfur outside any ring:
SMILES	CtBP-E1A inh	gsp agonist	D2 PAM	Six1-Eya2 blk	D2 ag	gsp antagonist
CCc1ccc(Nc2nc(N)nc(CSc3nc4ccccc4s3)n2)cc1	-0.8	24.4%[15.4 µM]	-6.3	2.9	4.6	3.4%
COc1ccc(S(=O)(=O)N2CCCCC2)cc1NC(=O)c1cccnc1SC	-7.2	-31.7%[inhibitor]	-0.7	3.1	0.8	-11.8%
CCn1c(SCc2ccccc2)nnc1-c1cccs1	-12.7	7.1%	-0.4	0.1	0.2	-22.7%
CCOC(=O)Cc1csc(NC(=O)CSc2nnnn2-c2ccc(CC)cc2)n1	-5.0	-31.1%[inhibitor]	1.8	5.7	-0.4	-19.4%
C=CCn1c(SCC(=O)N2CCN(C(=O)OCC)CC2)nc2c([nH]c3ccccc32)c1=O	2.4	?	-4.2	0.1	-0.2	.
Nc1ccccc1SC(CC(=O)c1ccccc1)c1cccc([N+](=O)[O-])c1 (centres undefined)	-1.8	-30.4%[inhibitor]	-33.9	-18.8	-12.1	.
Cn1c(N)c(C(=O)CSc2n[nH]c(-c3ccccc3)n2)c(=O)n(C)c1=O	19.2	-0.2%	-16.4	-6.0	-1.4	13.5%

Rows are unselected; about 1.4% have a hit in one of these screens.
